Screening results (PubChem)
NPYLR7 agonist = activates Aedes aegypti NPYLR7 receptor; HEK293T NPYLR7/Galpha15, GCaMP6s calcium fluorescence; activation, % at 10 µM; actives 0.15% (n = 270,000); in the data active = activation above about 40%;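 also: 0% = vehicle and 100% = reference agonist at the receptor; some compounds past the cut are filed as inactive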
NPYLR7 agonist max-min = also measured in NPYLR7 agonist; calls as there; activation, %; measured here: Max-Min RFU normalised activation; some inactives read as strong as hits;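 span of the calcium signal over five minutes; 0% = vehicle and 100% = native peptide agonist; compound fluorescence can raise it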
Active calls of the source: *; & = joins results of further samples.

SMILES	NPYLR7 agonist	NPYLR7 agonist max-min
CCN1CC(O)CN(C(=O)Cc2ccc(OC)cc2)CC1=O (centres undefined)	24	32
CN1C(=O)NC(c2ccccc2C(F)(F)F)C2=C1CN(CC(=O)NCc1cccc(C(F)(F)F)c1)C2=O (centres undefined)	-4	3
CC(C)c1nnc(NC(=O)CSc2nnc(NC(=O)Cc3ccccc3)s2)s1	-6	-12
CC(C)CN(CC(=O)Nc1nc(CC(=O)N2CCN(c3ccccc3F)CC2)cs1)C(=O)c1ccc(Cl)cc1	13	12
CCS(=O)(=O)NC(=O)C1(C)CCN1C(=O)Cc1ccccc1Cl (centres undefined)	8	3
CSc1nnc(C)c(=O)n1COC(=O)c1ccc(S(=O)(=O)N2CCOCC2)cc1	0	-1
Cc1cc(C)cc(CC(C)(C)C)c1	10	13
Cc1ccc(-n2c(SCC(=O)N3CCCC(C)C3)nnc2N2CCOCC2)cc1 (centres undefined)	-11	-10
CCc1nc2n(n1)C(=O)C(C(c1ccc([N+](=O)[O-])cc1)N1CCC(C)CC1)S2 (centres undefined)	-1	19
Cc1nc2ccc(C(=O)NC3CCN(C)CC3)cn2c1N(C)C(=O)CCc1ccccc1	20	17
CCOc1ccc(N2C(=O)C3C4C=CC(C4)C3C2=O)cc1 (centres undefined)	-9	-11
Cc1ccc(S(=O)(=O)NCC(c2ccc3c(c2)CCCN3C)N2CCOCC2)c(C)c1 (centres undefined)	4	1
CC(NC(=O)NCC1CCOC1)c1ccc2c(c1)CC(=O)N2 (centres undefined)	8	5
Cc1cc(N2CCN(C(=O)Nc3c(C(C)C)cccc3C(C)C)CC2)nc(-c2ccc(C(F)(F)F)cc2)n1	-7	-6
CCc1cc(NS(=O)(=O)c2cc(C)c(F)cc2Cl)n[nH]1	0	-1
CC(C)(O)C#Cc1cccc(C(=O)N2CCc3nc[nH]c3C2)c1	13	5
C=CC(O)CN1CCC(=O)N(CC(=O)OCC)Cc2ccccc21 (centres undefined)	2	2
COc1cccc(CC2CN(CCC(=O)Nc3nccs3)CCO2)c1 (centres undefined)	7	3
Cc1nc(SCc2ccc(Cl)cc2)c(C#N)c(C)c1C	6	6
O=S(=O)(c1ccccc1)c1nc(NC2CCCC2)sc1Cl	1&-1	5&-1
CNc1ccc(-c2cccc(O)c2)cn1	0	-1
COc1cccc(C(=O)NCC2CCCN(C(=O)c3ocnc3C)C2)c1OC (centres undefined)	20	3
C=CCn1c(SCC(=O)c2ccc3ccccc3c2)nnc1-c1cc(-c2cccs2)nc2cc(C)c(C)cc12	-1	-6
COc1cc2c(cc1OC)C1CN(C(=O)c3c(-c4c(F)cccc4Cl)noc3C)CC(=O)N1CC2 (centres undefined)	17	13
COc1cccc(CC2CN(C(=O)c3cc(C)n4nc(C)cc4n3)CCO2)c1 (centres undefined)	9	1
C=CCn1c(=NC(=O)C2CCCN2S(=O)(=O)c2cccs2)sc2c(OC)ccc(OC)c21 (centres undefined)	-4	-3
CCC(C)NC(=O)CCN(CCOC)c1nc(-c2ccco2)nc2ccccc12 (centres undefined)	-6	-1
CCc1nc(C)c(C(=O)N(C)Cc2nc(C3CC3)no2)o1	-2	-3
CS(=O)(=O)c1ccc(SCC(O)c2cccc(Cl)c2)cc1 (centres undefined)	-2	4
CSc1nnc(C)c2cnn(-c3ccccc3)c12	-12	-16
CCc1cc(CN(C)C(=O)C2CC(=O)N(c3cccc(O)c3)C2)on1 (centres undefined)	12	5
CC(C)(C)C(NC(=O)c1ccc2nncn2c1)C(F)(F)F (centres undefined)	-3	-2
CCC(NC(=O)CC(C)C)C1c2cc(OC)c(OC)cc2CCN1Cc1cccc(F)c1 (centres undefined)	5	8
CCn1cc(C(=O)N2CCC(n3nccc3NC(=O)CCOc3ccccc3)CC2)cn1	20	12
COCCN1CCN(c2nc(C3CCCC3)nc3c2cnn3C)CC1	4	-4
O=C(Nc1nc(-c2ccccc2)cs1)c1cccc(N2CCCC2=O)c1	-3	-4
FC(F)(F)c1ccc(CNc2nccnc2-c2ccccc2)cc1	-3	-8
Cc1onc(-c2c(Cl)cccc2Cl)c1C(=O)N1CCN(c2nc3nccc(-c4cc(Cl)ccc4Cl)n3n2)CC1	22	18
Cc1ccc(C(C(=O)NCCN2CCCOC2=O)N(C)C)cc1 (centres undefined)	15	8
CCOC(=O)N1CCN(C(c2ccccc2F)C2Sc3nc(CC)nn3C2=O)CC1 (centres undefined)	-1	-7
O=C(c1cc(C(F)(F)F)[nH]n1)N1CC(=O)N(C2CCCCC2)CC(OCc2cccnc2)C1 (centres undefined)	17	8
Cc1c(C)c(C(=O)NCc2ccco2)n(Cc2ccccc2F)c1C	20	29
O=C1COCc2cc(-c3cc(F)cc(F)c3)ccc2N1CCN1CCOCC1	6	2
Cc1ccc(Cc2nc(N3CCCN(C(=O)c4ccc(C(F)(F)F)cc4)CC3)c3c(C)nn(-c4ccc(F)cc4)c3n2)cc1	-6	-6
O=C(C#Cc1ccccc1)N1CCC(C2(Cc3ccc(F)cc3)NC(=O)N(C3CCOC3)C2=O)CC1 (centres undefined)	0	-1
CSCCC(NC(=O)c1ccco1)C(=O)O (centres undefined)	-2	-6
C/C(=C/C(=O)N(Cc1ccccc1F)C1CCN(C)CC1)c1ccc(F)cc1	5	5
CCOC(=O)c1sc(-c2ccc(Cl)cc2)cc1NC(=O)CN1CCC(OC)CC1	13	4
CC1=NN(c2nc(C)cc(C)n2)C(=O)C1C (centres undefined)	15	4
COc1cc(=O)n(-c2ccccc2)nc1C(=O)N(Cc1ccccc1)Cc1ccccc1	2	2
COc1ccc2nc(/C=C/C(=O)c3ccc(O)cc3)ccc2c1	-3	-3
Cc1nn(C(C)(C)C)c(OC(=O)c2cccc(F)c2)c1S(=O)(=O)c1ccccc1	1	46
Cc1ccccc1CCN1CCC(CN(C(=O)c2cnn(C(C)C)c2)C2CCCC2)CC1	9	1
CC(C)Oc1cccc(C(=O)C2CCCN(C(=O)NC(C)(C)C)C2)c1 (centres undefined)	11	2
O=C(CN1C(=O)CSc2ccccc21)Nc1ccnn1C1CCCc2ccccc21 (centres undefined)	2	0
Cc1csc(=O)n1CCNc1ccccc1OCC(F)(F)F	2	0
CC(C)(C)c1ccc(OCCCC(=O)NCc2cn[nH]c2)cc1	4	0
Cc1cc(F)ccc1S(=O)(=O)N1CCCn2cncc2C1	-7	-5
COCCN(CCOC)C(=O)CSc1nnc(-c2ccc3c(c2)OCO3)o1	5	0
CSc1nc(N2CCOCC2)c2cnn(CCNC(=O)CCCc3ccccc3)c2n1	-2	-4

(more compounds)
SMILES	NPYLR7 agonist	NPYLR7 agonist max-min
CC(=O)Oc1c(-c2ccc(NC(=O)c3ccc4c(c3)OCO4)cc2)c(-c2cccc(F)c2)nn1-c1ccc(C)cc1	5	2
CCCCOCCCNC(=O)CNC(=O)c1ccc(N2CCCC2=O)cc1	-7	12
CCOC(=O)C1CCN(C(=O)C2COC3(CCCCC3)N2C(=O)c2cccc(Cl)c2)CC1 (centres undefined)	-9	2
C=CCN(Cc1cccc(OC)c1)C(=O)c1cc(Cl)ccc1OC	9	4
O=C1CCC(=C(O)c2ccccc2)C(=O)/C1=C/NCCO	10	10
CCn1ncc2c1CCCC2NC1CCN(c2ccccc2F)C1=O (centres undefined)	-1	-5
Cc1ccc(NC(=NS(=O)(=O)c2ccccc2)Nc2nc(C)cc(C)n2)cc1	-5	-9
O=C(c1ccncc1)N1C[C@H]2CC=CC[C@H]2C1	11	7
O=C(CCN(CCCN1CCOCC1)c1nc(-c2ccccc2Cl)nc2ccccc12)NCc1cccc(C(F)(F)F)c1	1	12
CC(C)CC1c2[nH]c3ccccc3c2CCN1C(=O)CCC(=O)c1ccc(F)cc1 (centres undefined)	-8	-15
COc1ccc(O)c(C(C)NC(=O)c2sccc2-c2ccccc2)c1 (centres undefined)	0	-1
CN(C)CCCN1C(=O)C(=O)C(=C(O)c2ccccc2)C1c1ccc(Cl)c(Cl)c1 (centres undefined)	-4	-8
O=C(NNC(=O)c1cccc(Br)c1)c1cccc(Br)c1	5	8
O=C(Nc1c(-c2ccc(C(F)(F)F)cc2)nc2ccccn12)C1CCCCC1	-4	-3
COc1ccc2c(c1)CN(C(=O)Cc1csc(NC(=O)C(C)C)n1)CC2	2	1

Part of the list above in order of heavy-atom count, ascending.
SMILES	NPYLR7 agonist	NPYLR7 agonist max-min
CC(C)(C)c1ccc(OCCCC(=O)NCc2cn[nH]c2)cc1	4	0
CCCCOCCCNC(=O)CNC(=O)c1ccc(N2CCCC2=O)cc1	-7	12
Cc1nn(C(C)(C)C)c(OC(=O)c2cccc(F)c2)c1S(=O)(=O)c1ccccc1	1	46

Additional compounds.
SMILES	NPYLR7 agonist	NPYLR7 agonist max-min
Cc1nc2ncc3c(=O)n(-c4cccc(F)c4)ccc3n2n1	3	7
COC(=O)C1Sc2[nH]c(=O)sc2C(c2ccc(OC)cc2)C1C(=O)OC (centres undefined)	4	5
C=CCOC1C[C@](OCc2cccc(C)c2)(C(=O)NCCN2CCCC2)C[C@H]2OC(C)(C)O[C@@H]12 (some centres undefined)	14	1
CCCCN(C)C(=O)c1nc2ccccn2c1CNCc1c(OC)ccc2ccccc12	-7	-8
C=CC(N)CCC(=O)O (centres undefined)	-5&-7&2	-12&-12&22
COCCCn1c(-c2ccc(C(C)(C)C)cc2)nc2oc3cc(OC)ccc3c(=O)c2c1=O	-5	-4
COC(=O)c1sccc1S(=O)(=O)Nc1cccc(C)c1	15	10
Cc1ccc(F)c(-c2ncccc2C(=O)N2CCCC2)c1	13	8
COc1cc(C(=O)Nc2nnc(-c3cc(C)nn3C)o2)cc(OC)c1OC	-1	-1
COc1ccc(NC(=O)CN(C)Cc2nnnn2C2CC2)cc1	6	3
CCC(=O)NC(Nc1ccc(C)cn1)(C(F)(F)F)C(F)(F)F	10	8
O=C(NC1CC1)[C@@H]1C[C@@H](O)[C@H](O)[C@@H]2NC(=S)N(c3cccc4ccccc34)[C@@H]21	-8	-14
CC1=C(C(=O)NC(C)C)C2(CCCCC2)OC1=O	8	8
COc1cccc(CN(C)C(=O)c2cc(F)cc(S(N)(=O)=O)c2Br)c1	8	5
CCc1nc(-c2nccn2CCCc2scnc2C)c(C)[nH]1	8	2
CC(=O)OC[C@H]1O[C@@H]2C[C@@H](Nc3ccc(C)cc32)[C@@H]1OC(C)=O	-1	0
O=C(CN1CN(c2ccccc2)C2(CCN(C(=O)c3ccc(Cl)cc3Cl)CC2)C1=O)N1CCOCC1	12	16
O=C([C@@H]1C[C@@H](O)CN1)N1CCc2[nH]nc(-c3cccc4ccccc34)c2C1	8	3
CCNC(=O)COc1cccc(C(C)NC(=O)N2CCc3ccc(F)cc32)c1 (centres undefined)	2	3
COc1ccc(/C=C2\Oc3c(ccc4c3CN(C3CC3)CO4)C2=O)cc1	3	-6
CCCCc1ccc(C(=O)Nc2ccc(-n3nc(OCCOC)nc3-c3ccc(C(F)(F)F)cc3)cc2)cc1	-3	1
CC(c1ccccc1)n1cnc2c(cnc3nc4ccccc4n32)c1=O (centres undefined)	5	9
OCC1(CCc2ccccc2)CCCN(c2ncnc3sccc23)C1 (centres undefined)	-2	-6
COc1ccc(N2C(=O)CSC2c2cccs2)cc1Cl (centres undefined)	-14	-25
O=C(COC(=O)COc1ccccc1F)Nc1ccc(Br)cc1	8	6
COC(=O)c1sc(N)c(C(=O)OC)c1COC(=O)c1cnc(C)cn1	9	6
O=c1[nH]nc(C2CCN(C/C=C/c3ccco3)CC2)n1-c1ccccc1	3	2
COCCNS(=O)(=O)c1cccc(C(=O)NCCC(O)(c2ccc(C)o2)C(F)(F)F)c1 (centres undefined)	0	-3
Cc1cccc(CN(C)Cc2cn[nH]c2-c2ccc(F)cc2)c1O	1	25
CC(=O)Nc1cccc(NC(=O)c2sccc2C2CC2)c1	6	4
Cc1cc(C)n(CC(=O)N/N=C2\CCCCc3ccccc32)n1	-3	-3
Cc1cc(C)n(CCC(=O)NC(C)Cc2cc(C)[nH]n2)c(=O)n1 (centres undefined)	13	-6
Cc1ccc(CN2CCNC(=O)C2CC(=O)N(C)CCC2CCOCC2)o1 (centres undefined)	5	-4
CCOC(=O)N1CCN(c2c(NCCC(C)C)c(=O)c2=O)CC1	5	7
Cc1ccc(C)c(CN(CC(=O)N(CCc2ccccc2)Cc2ccc(C)o2)CC2CCCO2)c1 (centres undefined)	-2	-1
O=C(CSc1nc(=O)n(Cc2ccncc2)c2c1CCC2)Nc1ccc(F)cc1	2	2
CCC(C(=O)NCCCN(CC)CC)n1nc(C)n2c(cc3occc32)c1=O (centres undefined)	-4	-3
CC(C)C(=O)Nn1ccc2c(cnc3ncnn32)c1=O	3	5

Among those listed so far, these have a CF3 group:
SMILES	NPYLR7 agonist	NPYLR7 agonist max-min
CN1C(=O)NC(c2ccccc2C(F)(F)F)C2=C1CN(CC(=O)NCc1cccc(C(F)(F)F)c1)C2=O (centres undefined)	-4	3
Cc1cc(N2CCN(C(=O)Nc3c(C(C)C)cccc3C(C)C)CC2)nc(-c2ccc(C(F)(F)F)cc2)n1	-7	-6
CC(C)(C)C(NC(=O)c1ccc2nncn2c1)C(F)(F)F (centres undefined)	-3	-2
FC(F)(F)c1ccc(CNc2nccnc2-c2ccccc2)cc1	-3	-8
O=C(c1cc(C(F)(F)F)[nH]n1)N1CC(=O)N(C2CCCCC2)CC(OCc2cccnc2)C1 (centres undefined)	17	8
Cc1ccc(Cc2nc(N3CCCN(C(=O)c4ccc(C(F)(F)F)cc4)CC3)c3c(C)nn(-c4ccc(F)cc4)c3n2)cc1	-6	-6
Cc1csc(=O)n1CCNc1ccccc1OCC(F)(F)F	2	0
O=C(CCN(CCCN1CCOCC1)c1nc(-c2ccccc2Cl)nc2ccccc12)NCc1cccc(C(F)(F)F)c1	1	12
O=C(Nc1c(-c2ccc(C(F)(F)F)cc2)nc2ccccn12)C1CCCCC1	-4	-3
CCC(=O)NC(Nc1ccc(C)cn1)(C(F)(F)F)C(F)(F)F	10	8
CCCCc1ccc(C(=O)Nc2ccc(-n3nc(OCCOC)nc3-c3ccc(C(F)(F)F)cc3)cc2)cc1	-3	1
COCCNS(=O)(=O)c1cccc(C(=O)NCCC(O)(c2ccc(C)o2)C(F)(F)F)c1 (centres undefined)	0	-3

The list is partial; count on the stated rates, not on these rows.
